Polio RdRp inh = poliovirus RdRp elongation inhibitors, primary screen, biochemical, fluorescence polarization, total intensity; poliovirus polymerase elongation; stronger effect = lower value; 150,000 tested, 0.66% active; AID 588519, 2011; Genome polyprotein (Poliovirus type 1 (strain Mahoney)), P03300; % elongation, % (compound at 16.7 µg/mL); in the data active means % elongation below about 90%; further: some results filed as inactive read as strong as hits
Target sequence (P03300 1749-2209 limits assumed): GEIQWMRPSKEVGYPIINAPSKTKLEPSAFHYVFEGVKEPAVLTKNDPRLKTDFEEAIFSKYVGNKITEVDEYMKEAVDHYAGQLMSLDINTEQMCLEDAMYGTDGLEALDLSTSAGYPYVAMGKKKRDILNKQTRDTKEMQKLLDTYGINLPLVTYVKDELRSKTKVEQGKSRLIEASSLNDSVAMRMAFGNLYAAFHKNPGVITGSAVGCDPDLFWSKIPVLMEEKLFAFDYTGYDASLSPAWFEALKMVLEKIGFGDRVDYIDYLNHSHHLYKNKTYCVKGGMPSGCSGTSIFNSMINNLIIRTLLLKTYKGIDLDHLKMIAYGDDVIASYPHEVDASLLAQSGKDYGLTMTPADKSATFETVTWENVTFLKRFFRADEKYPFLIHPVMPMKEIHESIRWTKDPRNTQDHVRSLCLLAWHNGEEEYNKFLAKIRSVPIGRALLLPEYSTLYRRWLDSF
Mtb MbtI inh = MbtI salicylate synthase inhibitors, primary screen, biochemical, fluorescence intensity | inhibition, %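 (about 17 µg/mL by stock and volumes)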 | AID 493033, 2011 | P9WFX0 | 100,000 tested, 0.89% active | purified MbtI enzyme, fluorescence intensity read-out;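 active means above 50% in both replicates, above 80% if mildly self-fluorescent; inactive means the rest, strongly fluorescent compounds included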;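 further: 0% = mean of negative and 100% = mean of positive controls; one replicate is shown; some compounds called inactive have numbers as strong as hits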
MenB inh = M. tuberculosis MenB inhibitors, primary screen, biochemical, absorbance | MenB enzyme assay, absorbance read-out; some hits fall short of the stated cut | inhibition, %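 (about 12 µg/mL by stock and volumes)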 | 100,000 tested, 0.43% active;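 active means mean of two replicates above 30%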;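 further: 0% = no compound and 100% = wells with inactive enzyme; the first replicate is given; strong numbers were not always called active; inactives centre near -10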
Target sequence (P9WNP5 whole entry, looked up): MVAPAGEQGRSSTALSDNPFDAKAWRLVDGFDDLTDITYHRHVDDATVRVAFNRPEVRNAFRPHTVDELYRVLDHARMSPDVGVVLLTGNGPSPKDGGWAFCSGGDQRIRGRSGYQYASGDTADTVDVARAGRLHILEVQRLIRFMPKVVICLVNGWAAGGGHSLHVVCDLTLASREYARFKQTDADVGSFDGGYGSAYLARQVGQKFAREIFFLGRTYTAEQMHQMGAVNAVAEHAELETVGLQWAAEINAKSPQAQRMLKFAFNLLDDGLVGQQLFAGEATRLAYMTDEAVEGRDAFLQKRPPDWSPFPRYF
Polio RdRp inh intensity = further read-out of Polio RdRp inh, marked with its call; % elongation; measured here: total intensity read-out; formula for this scale not given here;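 total fluorescence in place of polarization; lower means less elongation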
Starred values were filed as active, the others as inactive; x = no result given.

SMILES	Polio RdRp inh	Polio RdRp inh intensity	Mtb MbtI inh	MenB inh
O=C1OCC(c2ccc(Cl)cc2)=C1c1cccs1	x	x	17	-10
Nc1nc2ccccc2n1Cc1ccc(Cl)c(Cl)c1	102	111	x	-16
S=C(NCCn1cc(Br)cn1)Nc1ccc2c(c1)OCO2	102	102	-6	-21
CN(C(=O)CSc1nncn2c1cc1sccc12)c1ccccc1	98	100	6	33*
CC(=O)Oc1ccc(C(=O)Nc2ccc(F)cc2F)cc1	104	108	x	6
CC(=O)NC(=S)Nc1nc2ccccc2n1C(C)=O	100	102	-8	-22
Brc1ccc2c(c1)OCCO2	99	105	-2	-15
Cn1ccnc1SCC(=O)Nc1ccccc1Oc1ccccc1	103	106	x	-13
CCNCc1ccncc1	102	99	5	0
COc1ccc(OCC(C)N)cc1 (stereo unspecified)	103	103	-1	14
Cc1cc(C)n(-c2ccc(C(=O)OCC(=O)Nc3c(Cl)cccc3Cl)cc2)n1	102	113	-8	x
CN(Cc1nc2ccccc2s1)S(=O)(=O)c1cccc(Cl)c1	103	99	-13	-14
CCOC(=O)N1CCN(C(=O)CCCC2CCCCC2)CC1	102	104	-4	-23
COc1ccc2nc(NS(=O)(=O)Cc3ccccc3)sc2c1	102	103	4	-11
O=C(O)/C=C\C(=O)Nc1ccc2cn[nH]c2c1	102	101	28	-34
CC(=O)Nc1cccc(C(=O)NCc2ccccc2F)c1	104	115	0	-8
CCOC(=O)c1cccc(CSc2n[nH]c(N)n2)c1	101	101	7	6
O=C(c1ccco1)N1CCN(C(=O)c2cnn(-c3ccccc3)c2-n2cccc2)CC1	102	103	-7	-11
O=c1oc2c(ccc3c(O)cccc32)c2c1CCCC2	102	104	-40	-7
CCc1ccc(NC(=O)COc2cnc3ccccc3n2)cc1	98	99	2	x
Nc1c2c(nn1Cc1ccccc1)CCCn1c-2nc2ccccc2c1=O	106	99	12	16
O=C(Nc1ccc(-c2nc3cccnc3s2)cc1)c1ccccc1	100	99	-39	14
CC1(N(O)/C=C2/C=CC=N2)CCCCC1=O (stereo unspecified)	98	99	14	-50
COc1cccc(OC)c1C(=O)OCC(=O)NC1CCCCC1C (stereo unspecified)	104	108	21	-19
COc1ccc(O)c(C2(O)C(=O)c3ccccc3C2=O)c1	101	106	-15	-106
CCC(=O)NC(C)C(c1cccs1)N1CCN(Cc2ccccc2)CC1 (stereo unspecified)	100	102	-2	18
CCCOc1cccc(C(=O)Nc2ccc(C(=O)OC)cc2)c1	105	101	-6	-20
O=C(CSc1nc(O)cc(=O)n1-c1ccccc1)N1CCc2ccccc21	98	103	10	-120
COc1ccccc1N1CCN(CC(N)=O)CC1	101	100	-3	3
Cc1ccc(C(=O)CCC(=O)Nc2cccc3ccccc23)cc1	105	107	-10	4
CCOc1ccc(C2CC(=O)NC3=C2C(=O)CCC3)cc1 (stereo unspecified)	103	100	11	-2
CC(C)Cc1nnc(NC(=O)CCCN2C(=O)CCC2=O)s1	103	103	-6	0
Cc1oc2ccccc2c2nn(C)c(=O)c1-2	102	104	-16	-2
CC(C)N1CCc2c(sc(NC(=O)C3=COCCO3)c2C(N)=O)C1	103	111	2	-84
Cc1cc(C(=O)N2CCN(Cc3ccccc3)CC2)n[nH]1	104	95	-4	-11
CCn1c(SCC(=O)c2ccccc2)nnc1-c1c[nH]c2ccccc12	102	106	-2	-7
COc1cccc(C(=O)NC(=S)Nc2ccc(O)c(-c3nc4ccccc4s3)c2)c1	102	92	8	-26
CC(C)[C@H]1COC(c2cccc(C3=N[C@@H](C(C)C)CO3)n2)=N1	104	95	-6	4
CCC1=C(C)CN(C(=O)NCCc2ccc(S(=O)(=O)NC(=O)NC3CCC(C)CC3)cc2)C1=O (stereo unspecified)	98	100	-1	5
Cc1cc(NC(=O)CN2CCCc3ccccc32)no1	102	104	8	-9

A different layout for some results above:
Each structure is followed by: Polio RdRp inh, Polio RdRp inh intensity, Mtb MbtI inh, MenB inh
Cc1oc2ccccc2c2nn(C)c(=O)c1-2
→ 102, 104, -16, -2
CC(C)[C@H]1COC(c2cccc(C3=N[C@@H](C(C)C)CO3)n2)=N1
→ 104, 95, -6, 4
CC(C)N1CCc2c(sc(NC(=O)C3=COCCO3)c2C(N)=O)C1
→ 103, 111, 2, -84
CCOc1ccc(C2CC(=O)NC3=C2C(=O)CCC3)cc1 (stereo unspecified)
→ 103, 100, 11, -2
CCC1=C(C)CN(C(=O)NCCc2ccc(S(=O)(=O)NC(=O)NC3CCC(C)CC3)cc2)C1=O (stereo unspecified)
→ 98, 100, -1, 5

Next part:
SMILES	Polio RdRp inh	Polio RdRp inh intensity	Mtb MbtI inh	MenB inh
CCN(C(=O)c1cccc(C)c1)c1ccccc1	101	101	-15	-26
O=C(O)Cc1ccc2c(c1)CCC2	101	103	10	-18
COc1ccc2oc(=O)c(-c3nc(-c4ccncc4)n[nH]3)cc2c1	102	105	-5	-40
CN(c1ccc(-c2csc(-c3cccs3)n2)cc1)S(C)(=O)=O	88*	92*	39	-18
O=C(NCc1ccc2[nH]c3c(c2c1)CCCC3)c1ccc(C(F)(F)F)cc1	101	106	-4	2
FC(F)(F)c1cc(-c2ccc(Br)cc2)n[nH]1	102	100	-5	-44
NNc1ncnc2c1oc1ccccc12	102	103	20	-14
CCC(=O)Nc1ccc(S(=O)(=O)N2CCCCC2CC)cc1 (stereo unspecified)	103	103	-7	-26
Clc1ccccc1OCc1nnc2n1CCC2	105	106	2	x
Cc1ccc2nc(-c3cccc(-c4nc5ccc(C)cc5o4)n3)oc2c1	102	108	12	-4
O=C(O)COc1ccccc1Cc1ccccc1	101	103	-8	x
COc1ccc(CN(C)S(C)(=O)=O)cc1	102	103	3	-25
Cc1ccc(-n2c(SCC(=O)N3CCNC3=O)nnc2-c2ccccc2)cc1C	95	90	7	-20
Cc1nnc(NC(=O)c2cn(-c3ccccc3)nc2-c2cccnc2)o1	104	105	17	-34
CC1CC(C)CN(CCCNC(=O)Cc2c(C(=O)O)[nH]c3ccccc23)C1 (stereo unspecified)	104	113	36	6
COc1ccc2c(C)c(CC(C)O)c(=O)oc2c1 (stereo unspecified)	105	104	105	-12
OC1(c2ccc(F)cc2)CC2CCC(C1)N2Cc1nnnn1C1CCCCC1 (stereo unspecified)	99	102	-5	19
COc1ccc(/C=C2/C(=O)N(C)c3ccccc32)cc1	100	104	17	-64
COc1ccc(-c2cc(-c3nnc(COC(=O)C4COc5ccccc5O4)o3)c3ccccc3n2)cc1OC (stereo unspecified)	99	101	70	-18
CCOc1cc2[nH]c(=O)n(CC3CCC(C(=O)NCCC(C)C)CC3)c(=O)c2cc1OCC (stereo unspecified)	101	101	7	-9
COc1ccc(CNC(=O)C2C3C=CC(O3)C2C(=O)O)cc1OC (stereo unspecified)	101	104	2	-4
CCC(Sc1nc2ncccc2[nH]1)C(=O)NC1CCCC1 (stereo unspecified)	103	105	1	-3
COc1ccc(S(=O)(=O)N2CCCC2C(=O)Nc2c(C)n(C)n(-c3ccccc3)c2=O)cc1 (stereo unspecified)	101	97	-9	-14
O=C(CSc1nnc(-c2ccncc2)n1-c1ccccc1)Nc1ccccc1	x	x	0	-31
O=C(O)c1ccc(Cl)c(N2CCCC2=O)c1	103	106	-11	4
CCN1C(=O)C2(Sc3ccccc3C2=O)C(=O)N(CC)C1=S	101	104	-151	-7
CC(=O)Nc1cccc(N=Cc2cc(Br)ccc2O)c1	99	100	-1	-66
O=C(O)C1CC(=O)N(C2CC2)C1 (stereo unspecified)	101	100	-1	8
CCn1c(C(=O)N2CCC(C(=O)NCCCc3ccccc3)CC2)cc2sccc21	103	103	3	-24
CC(CCc1ccccc1)NCc1c(C(=O)O)n(Cc2ccc(F)cc2Cl)c2ccccc12 (stereo unspecified)	99	97	13	-26
C=CCN(CC=C)C(=O)C1CCN(Cc2cc(Br)c(O)c(OC)c2)CC1	104	101	6	-32
O=C(CSc1nnc(Nc2ccccc2)s1)NC1CCS(=O)(=O)C1 (stereo unspecified)	101	97	-6	14
CCn1c(SCC#N)nnc1-c1ccc(S(=O)(=O)N2CCCC2)cc1	102	102	9	14
O=C(O)CSc1nc2ccccc2c(=O)n1-c1ccccc1	103	99	-18	-5
CCOC(=O)C1CCCN(C(=O)CSCc2nc(-c3ccc(Cl)cc3)oc2C)C1 (stereo unspecified)	99	102	59	4
CN(CCCn1cnc2c([nH]c3ccc(Cl)cc32)c1=O)C1CCCCC1	103	103	-5	-6
COc1cc(CNCc2cccc(C(F)(F)F)c2)cc(OC)c1	105	108	5	-8
O=C(Nc1ccccc1)Nc1ccc(Cl)c(Cl)c1	100	101	-18	-21
Cc1ccc(N=CC2=C(O)CCCC2=O)cc1	100	102	6	-1
COC(=O)C1=C(N)OC(OC)=C(C#N)C1c1ccncc1 (stereo unspecified)	94	100	x	-18

The closing 7 records of the part above come first, to join the parts:
SMILES	Polio RdRp inh	Polio RdRp inh intensity	Mtb MbtI inh	MenB inh
O=C(O)CSc1nc2ccccc2c(=O)n1-c1ccccc1	103	99	-18	-5
CCOC(=O)C1CCCN(C(=O)CSCc2nc(-c3ccc(Cl)cc3)oc2C)C1 (stereo unspecified)	99	102	59	4
CN(CCCn1cnc2c([nH]c3ccc(Cl)cc32)c1=O)C1CCCCC1	103	103	-5	-6
COc1cc(CNCc2cccc(C(F)(F)F)c2)cc(OC)c1	105	108	5	-8
O=C(Nc1ccccc1)Nc1ccc(Cl)c(Cl)c1	100	101	-18	-21
Cc1ccc(N=CC2=C(O)CCCC2=O)cc1	100	102	6	-1
COC(=O)C1=C(N)OC(OC)=C(C#N)C1c1ccncc1 (stereo unspecified)	94	100	x	-18
CC1(C)CC(NCCNC2=CC(=C(C#N)C#N)CC(C)(C)C2)=CC(=C(C#N)C#N)C1	109	105	5	-21
c1cc2c3c(cccc3c1)C(N1CCOCC1)=N2	95	128	4	-119
Cn1c2c(c(=O)n3ncnc13)CCCC2	102	104	17	-17
CCC(=O)N=c1sc2c(OC)ccc(OC)c2n1CC	99	108	-5	-22
Cc1cc(C)c2c(c1C(=O)Nc1cccc(C(F)(F)F)c1)CC(C)(C)C2=O	100	105	-6	-15
O=C(NCc1n[nH]c(=S)n1-c1ccccc1)c1ccc(S(=O)(=O)N2CCCCC2)cc1	101	99	12	-26
CCCCOC1COC(OCCCC)CO1 (stereo unspecified)	102	99	-9	-7
O=C(CN1C(=O)CSc2cc(S(=O)(=O)N3CCCC3)ccc21)NCc1ccccc1	106	108	-1	-6
O=C(CN(CCc1ccc(F)cc1)CC(=O)N1CCc2ccccc21)N1CCc2ccccc21	99	99	10	0
CC(C)N(C(=O)Cn1cnc2ccccc21)C(C)C	103	102	-3	-22
COc1ccc(CCN2C(=S)NC3CC2(C)Oc2c(OC)cc(Br)cc23)cc1OC (stereo unspecified)	102	107	0	-26
O=C1NC(C2CC=CCC2)Nc2ccccc21 (stereo unspecified)	109	105	-8	-8
Cn1c(N)c(C(=O)CN2c3cccc4cccc(c34)S2(=O)=O)c(=O)n(C)c1=O	x	x	4	-28
